HCMV UL50-53 inh – inhibitors of HCMV UL50-UL53 nuclear egress complex interaction. HTRF UL50-UL53 interaction, normalized percent inhibition. inhibition, % (concentration not given with the values). 0.15% of 190,000 active;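 active = both replicates at 50% or more, plus weaker picks with an unusually low signal ratio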;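 also: stock transfer was 100 nL into about 20 µL; 0% = negative control wells and 100% = wells with untagged competitor protein; inactives centre near -12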
GIV Gai3 FP – inhibitors of GIV GBA-motif binding to rat Galpha-i3; Galpha-i3/FITC-GIV peptide fluorescence polarization, 90 min; stronger effect = lower value; scaled: aluminum fluoride 0%, vehicle 100%; 0.42% of 210,000 active; percent of control (FP), % (no concentration beside the values); AID 1224905;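 active = replicate mean at 85% of control or lower, very high polarization wells dropped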;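 also: wells of about 15 µL received 100 nL stock; the first replicate is given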
Target sequence (P08753 whole entry, looked up): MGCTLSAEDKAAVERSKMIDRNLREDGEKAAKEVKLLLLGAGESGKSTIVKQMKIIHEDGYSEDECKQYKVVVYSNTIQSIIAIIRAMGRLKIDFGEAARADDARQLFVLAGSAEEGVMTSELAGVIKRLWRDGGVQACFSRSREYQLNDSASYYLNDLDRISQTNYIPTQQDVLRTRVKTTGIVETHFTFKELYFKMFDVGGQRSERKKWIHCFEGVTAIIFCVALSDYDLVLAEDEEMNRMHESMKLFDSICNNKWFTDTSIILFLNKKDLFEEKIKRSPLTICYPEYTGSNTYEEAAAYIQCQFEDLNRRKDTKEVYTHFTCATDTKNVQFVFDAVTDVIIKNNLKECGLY
Sa growth 42C – blocks Staphylococcus aureus growth; S. aureus RN4220 growth, OD600, 20 h, 42 °C; stronger effect = lower value; relative growth, % (test concentration not listed); 0.53% of 170,000 active; AID 720641;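 active = growth at 42 °C up to 50% and 20 or more points under that at 30 °C, or under 10% at both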;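 also: 300 nL library stock went into each well; scaled to the means of positive and negative controls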
Sa growth 42C second temp – further read-out of Sa growth 42C, marked with its call; relative growth, %; measured here: growth at 30 °C;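 optical density after 20 h as mean of two plates; 100% = untreated growth and lower means inhibition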
Active calls of the source: *; · = no result given; & = joins results of further samples.

Below each SMILES – HCMV UL50-53 inh	GIV Gai3 FP	Sa growth 42C	Sa growth 42C second temp
1	CN(C)CCN(Cc1ccco1)C(=O)c1oc2ccccc2c1NC(=O)c1ccccc1
    ·	103	84	81
2	CCOc1ccccc1-c1noc(CSc2nnc(-c3ccccc3)n2-c2ccc(F)cc2)n1
    6	100	104	91
3	CC(C)c1ccccc1OCC(=O)O
    0	·	113	93
4	S=C(CN1CCCC1=S)N1CCOCC1
    -3	102	105	97
5	CCc1ccc(NC(=O)CSc2nc(C)cc(COC)c2C#N)cc1
    -26	106	112	90
6	CCc1ccc(Nc2nnc(SCC(=O)O)s2)cc1
    13	·	94	98
7	CC(=O)N(C)c1ccc(N=Cc2cccs2)cc1
    -7	92	101	71
8	Cc1ccc(C)c(Nc2nnc(-c3ccc(C)c(S(=O)(=O)N4CCCCC4)c3)c3ccccc23)c1
    20	103	110	95
9	CCOC(=O)c1cnc2sc3c(n2c1=O)CCCC3
    -36	·	61	39
10	Cc1cccc(C(c2sc3nc(-c4ccco4)nn3c2O)N2CCN(c3ccccc3F)CC2)c1 (stereo unspecified)
    ·	103	108	54
11	Cc1ccc(-n2ncc(C(=O)NCc3cccs3)c2C2CCN(C(=O)OC(C)(C)C)CC2)cc1
    ·	106	97	87
12	O=C(NCCc1cnc[nH]1)c1ccc(Cn2c(SCc3ccc(Cl)cc3)nc3ccncc32)cc1
    0	101	·	·
13	CCC(=O)Nc1ccc(C(=O)COc2cccc(-n3cnnn3)c2)cc1
    15	·	92	97
14	Cc1ccc(CNC(=O)c2cc(C)nc3c2c(=O)n(C)c(=O)n3C)cc1
    -28	102	·	·
15	CC(=O)Nc1ccc(S(=O)(=O)CCO)cc1
    -2	·	106	86
16	Cc1nn(-c2ccc(N3CCOCC3)nn2)c(C)c1CCC(=O)N1CCN(c2ccccn2)CC1
    -34	101	·	·
17	CNC(=O)OC(C)(C)C#Cc1cncnc1
    0	115	107	96
18	C=CCSc1nnc2n(-c3ccc(OC)cc3)c(=O)c3c4c(sc3n12)COC(C(C)C)C4 (stereo unspecified)
    -4	100	94	90
19	Cc1onc(-c2ccc(Br)cc2)c1C(=O)Nc1ccc(Br)cc1F
    ·	105	83	94
20	O=C1c2ccccc2-c2nc3ccccc3nc21
    -135	104	5.6*	8.6*
21	CCCCOc1ccc(CNC(=O)C2CCN(c3nnc(-n4cccc4CNc4ccc(C)cc4)s3)CC2)cc1
    5	102	111	100
22	Cc1ccc2nc3c4ccccc4cnc3n2c1
    -13	103	98	92
23	CC(C)OC(=O)c1ccc2c(c1)no[n+]2[O-]
    -101	94	102	37
24	O=C(c1cccc(Br)c1)N1CCC(c2nc(-c3ccc(F)cc3)no2)CC1
    -14	100	·	·
25	CSc1ccc(CCNC(=O)C(C)n2c(C)c3cnn(-c4ccccc4)c(=O)c3c2C)cc1 (stereo unspecified)
    -10	104	113	45
26	CCc1ccc2[nH]c(=O)c(CN(CCO)C(=S)NCc3ccco3)cc2c1
    -9	94	120	102
27	COC(=O)c1cc(NC(=O)c2ccc(N3CC4CC(C3)c3cccc(=O)n3C4)c(N)c2)cc(C(=O)OC)c1 (stereo unspecified)
    -21	106	90	88
28	O=C(c1cccc(-n2nnc3cccnc32)c1)N1CCN(c2cccc(Cl)c2)CC1
    -6	121	·	·
29	CC(C)NC(=O)N1CCCN(c2nc3ccc(Cl)cc3s2)CC1
    -29	105	103	79
30	O=C1OC(c2ccc(-c3ccccc3)cc2)=N/C1=C\c1ccco1
    ·	97	101	103

The last 5 records of the part above open the next one.
Below each SMILES – HCMV UL50-53 inh	GIV Gai3 FP	Sa growth 42C	Sa growth 42C second temp
26	CCc1ccc2[nH]c(=O)c(CN(CCO)C(=S)NCc3ccco3)cc2c1
    -9	94	120	102
27	COC(=O)c1cc(NC(=O)c2ccc(N3CC4CC(C3)c3cccc(=O)n3C4)c(N)c2)cc(C(=O)OC)c1 (stereo unspecified)
    -21	106	90	88
28	O=C(c1cccc(-n2nnc3cccnc32)c1)N1CCN(c2cccc(Cl)c2)CC1
    -6	121	·	·
29	CC(C)NC(=O)N1CCCN(c2nc3ccc(Cl)cc3s2)CC1
    -29	105	103	79
30	O=C1OC(c2ccc(-c3ccccc3)cc2)=N/C1=C\c1ccco1
    ·	97	101	103
31	CC1Cc2ccccc2N1C(=O)c1cc(Cl)cc(Cl)c1 (stereo unspecified)
    -38	·	88	82
32	CC(C)(C(=O)O)N1C(=O)c2ccccc2C1=O
    -5	108	92	91
33	O=C(O)CSc1nc2scc(-c3ccccc3)c2c(=O)[nH]1
    2	95	95	109
34	CCOC(=O)c1c(C)c(C(=O)NCCc2ccc(OC)cc2)c(C)n1CC
    -28	101	100	84
35	Cc1cc(Cl)ccc1OCCCC(=O)NCc1ccccn1
    -20	106	97	82
36	O=C(CSc1nc2ccccc2o1)Nc1ccccc1C(F)(F)F
    -12	98	·	·
37	COC(=O)c1ccccc1C(=O)c1ccccc1
    18	·	100	99
38	O=C(CSc1ccccc1)N1CCN(c2ccc(F)cc2)CC1
    ·	103	80	87
39	O=C(NCCSCc1ccco1)C1CCC1
    -35	106	72	82
40	O=C(Nc1c(C(=O)c2ccccc2)oc2ccccc12)c1cccs1
    ·	102	85	86
41	COc1ccc(S(=O)(=O)c2cn(Cc3ccccc3)c3ccc(OC)cc3c2=O)cc1
    11	106	97	106
42	CC(NC(=O)C(=O)Nc1c2c(nn1-c1ccccc1)CSC2)c1ccccc1 (stereo unspecified)
    ·	102	139	74
43	COc1ccc2[nH]cc(C(=O)NCCc3ccccc3)c(=O)c2c1
    -19	103	93	90
44	CCc1ccc(NC(=O)C(CC)n2c(=O)c(C(F)(F)F)nc3ccccc32)cc1 (stereo unspecified)
    ·	104	89	87
45	O=C1NC(=[N+]2CCCCC2)S/C1=C\c1ccc(-c2ccc(Br)cc2)o1
    -7	·	62	82
46	CCOC(=O)c1c(-c2ccccc2)csc1/N=C/c1c(C)[nH]n(-c2ccccc2)c1=O
    -12	104	·	·
47	CC(C)CNC(=O)C1CC(=O)N(c2ccc(OCC(=O)Nc3ccc(F)cc3)cc2)C1 (stereo unspecified)
    -40	·	94	87
48	Cc1sc(-c2noc(C(C)C)n2)cc1S(=O)(=O)N1CCC(C(=O)N2CCC(C)CC2)CC1
    -13	103	·	·
49	COc1cccc(C2C3=C(CC(C)(C)CC3=O)Nc3onc(C)c32)c1OC (stereo unspecified)
    -22	105	·	·
50	Cc1ccn2c(=O)c(C(=O)NCCCN3CCCCC3C)c(O)nc2c1 (stereo unspecified)
    -19	100	92	86
51	COc1cccc(/C=C2\CC(C)C/C(=C\c3ccccc3OC)C2=O)c1 (stereo unspecified)
    ·	103	83	87
52	CC1CCCCC1N=C1NN=C(c2ccccc2)CS1 (stereo unspecified)
    -28	·	114	90
53	Cc1cc(C)c2c(CC(=O)Nc3ccc(S(=O)(=O)Nc4nc(C)cc(C)n4)cc3)coc2c1
    -21	105	97	69
54	COc1ccc(NC(=O)CCc2nc3sc4c(c3c(=O)[nH]2)CCC(C(C)(C)C)C4)c(OC)c1 (stereo unspecified)
    1	98	·	·
55	CCOc1ccc(CCNC(=O)Cn2nc(CC)n3c(cc4ccccc43)c2=O)cc1
    -34	99	110	83
56	Brc1ccc(CN2CCN(Cc3ccco3)CC2)cc1
    10	104	97	113
57	O=C1CCSC(=O)N1CN1CCN(S(=O)(=O)c2ccc(Cl)cc2)CC1
    -33	·	86	95
58	COc1ccc(CNCCNC(=O)c2cccs2)c(OC)c1OC
    -6	100	102	90
59	COc1cccc(CNC(=O)CSc2nc3ccccc3nc2Cc2ccccc2)c1
    ·	103	87	88
60	CCCCC1CN2CCc3c([nH]c4ccccc34)C2(C)C1 (stereo unspecified)
    -10	·	79	61

(further entries)
Below each SMILES – HCMV UL50-53 inh	GIV Gai3 FP	Sa growth 42C	Sa growth 42C second temp
61	CSc1n[nH]c(=O)n1C1CCCCC1
    -18	99	103	89
62	Cc1noc(C)c1S(N)(=O)=O
    -10	·	91	94
63	Cc1ccc(C(=O)C(C)OC(=O)c2cc(C)nc3ccccc23)cc1 (stereo unspecified)
    -18	·	104	80
64	Cc1cc(NC(=O)CSCc2nc3c(nnn3Cc3c(F)cccc3Cl)c(=O)[nH]2)no1
    -18	100	83	86
65	CCN(CC)S(=O)(=O)c1ccc(NC(=O)Cc2cccs2)cc1
    1	108	104	82
66	CCCn1c2c(c(=O)n(C)c1=O)C(c1ccc(Br)cc1)C1=C(COC1=O)N2 (stereo unspecified)
    26	119	120	91
67	COc1ccc(-c2onc(C)c2C)cc1S(=O)(=O)N1CCN(c2ccc(Cl)cc2)CC1
    ·	97	73	91
68	COc1ccc(CCNC(=O)CC2Sc3ccccc3NC2=O)cc1OC (stereo unspecified)
    6	98	88	90
69	N#CC1(NC(=O)CSc2nnc(-c3ccc4c(c3)OCO4)o2)CCCCC1
    -26	·	107	87
70	CCOc1ccc(-c2noc(-c3sccc3S(=O)(=O)N(C)c3ccccc3)n2)cc1
    -16	108	·	·
71	Cc1ccc(C(=O)On2c(C3CCCCC3)nc3ccccc3c2=O)cc1C
    -3	101	·	·
72	CCOc1ccccc1NC(=O)N1CCc2c(sc3c2CCCC3)C1c1ccccc1 (stereo unspecified)
    ·	103	77	85
73	CCOc1ccc(C2C(=O)N(C3CCCCCC3)CC(=O)N2Cc2ccccc2)cc1OC (stereo unspecified)
    ·	105	127	86
74	O=C(Nc1ccccc1C(F)(F)F)NN1CCOCC1
    0	100	101	89
75	CSC(=Nc1c(C)cccc1C)N(C)C
    9	103	105	99
76	COc1ccc(CNS(=O)(=O)c2cnc(N)nc2)cc1
    ·	104	90	84
77	Cc1cc(CO)c(C)n1-c1ccncc1
    -11	·	108	91
78	COc1ccc(/C=N/NC(=O)CN2CCSCC2)c(OC)c1
    -7	99	99	109
79	CCN(c1ccccc1)c1nnc(NC(=O)Nc2ccc(Br)cc2)s1
    -21	103	93	101
80	CCCc1c(C(=O)OCC)c(C(=O)OCC)c2c(-c3ccccc3)nc(N3CCOCC3)nn12
    -9	·	98	88
81	COc1ccc(C(=O)N2CCN(S(=O)(=O)c3ccc4c(c3)NC(=O)CO4)CC2)c(OC)c1
    -28	105	·	·
82	Cc1ccc(S(=O)(=O)NC(C(=O)N2CCC(c3nc(-c4ccccc4)no3)CC2)C(C)C)cc1 (stereo unspecified)
    -2	102	·	·
83	Cc1ccc2nc(-c3ccc(NC(=O)c4csnn4)cc3)sc2c1
    -12	103	·	·
84	Cc1c(CC(=O)O)c(=O)oc2c(C)c3occ(C(C)(C)C)c3cc12
    ·	102	88	99
85	O=C(Cn1c(=O)c(C(F)(F)F)nc2ccccc21)NCc1ccccc1
    ·	102	88	94
86	O=S(CCc1ccncc1)Cc1ccccc1 (stereo unspecified)
    1	103	103	87
87	CC(=O)Nc1ccc(Nc2cc(C)nc3ccccc23)cc1
    12	110	91	103
88	CCn1c2ccccc2c2nnc(SCC(=O)Nc3ccc4c(c3)OCO4)nc21
    -12	·	104	94
89	CC(=O)c1ccc(NC(=O)CSc2nc(-c3ccc(C)cc3)nc3c2c(=O)n(C)c(=O)n3C)cc1
    ·	103	88	90
90	CCc1ccc2oc(-c3cc(NC(=O)c4cc(OC)c(OC)c(OC)c4)ccc3O)nc2c1
    -41	105	94	89

Further results.
Below each SMILES – HCMV UL50-53 inh	GIV Gai3 FP	Sa growth 42C	Sa growth 42C second temp
91	COc1ccc2cc3c(N)nn(C(=O)Cc4ccccc4OC)c3nc2c1
    -8&-4	105&103	115	90
92	O=C1CCCN1C(c1ccc(Br)cc1)N1CCCC1=O
    -17	·	97	90
93	COC(=O)c1c(C)[nH]c(C(=O)N2CCC(CC(=O)NCc3cccc(Br)c3)CC2)c1C
    -12	105	·	·
94	O=C(CSc1ncn[nH]1)c1ccco1
    -19	·	100	86
95	CN1CCN(c2ncnc3oc(-c4ccccc4)c(-c4ccccc4)c23)CC1
    -51	102	87	83
96	O=C(Nc1ccccc1Cl)c1cc(=O)c2ccccc2o1
    -10	102	·	·
97	COc1cccc(Nc2ccc(-c3ccccc3)nn2)c1
    -2	100	111	86
98	O=C(O)c1c(CNCc2ccco2)c2ccccc2n1Cc1ccccc1
    -21	112	94	91
99	CCOc1ccc(NC(=O)c2cc(=O)c3cc(Cl)ccc3o2)c2cccnc12
    -11	101	·	·
100	O=C(c1ccccc1C(=O)N1CCOCC1)N1CCOCC1
    -5	100	108	107
101	Cc1ccc(NC(=O)N2CCc3cc(S(=O)(=O)N4CCC(C)CC4)ccc32)cc1F
    8&-7	104&94	104	93
102	Cc1cc(=O)c2ccc(Cl)cc2[nH]1
    -11	101	96	88
103	c1cncc(C2=Nc3ccccc3C(c3cccnc3)=NN2)c1
    -5	106	89	107
104	CN(C)c1ccc(P(=O)(C2CCCC2=O)C2CCCC2=O)cc1 (stereo unspecified)
    -40	·	99	99
105	COc1ccccc1S(=O)(=O)N(C)Cc1ccccc1
    -1	·	99	104
106	CCOC(=O)c1ccc(NC(=O)CSc2nccn2-c2cccc(C)c2C)cc1
    ·	111	84	92
107	O=C(O)[C@@H](c1ccccc1)N1C(=O)c2ccccc2C1=O
    -10	110	109	89
108	N#Cc1cccnc1Oc1ccccc1
    -28	110	102	100
109	Clc1ccc(/C=N/N2CCOCC2)cc1
    -40	103	111	91
110	COc1ccc(NC(=O)C2CC(c3cccc(OC)c3)=NO2)cc1 (stereo unspecified)
    ·	105	118	89
111	c1csc(-c2cc(N3CCCCC3)c3ccccc3n2)c1
    -9	96	90	95
112	Cc1ccccc1N1C(=O)CS/C1=C(/C#N)C(=O)N1CCCCC1
    -16	·	99	86

Screening data deposited in PubChem BioAssay by ICCB-Longwood Screening Facility, Harvard Medical School.
